MgrA DNA FP = S. aureus MgrA activity modulators, primary screen, biochemical, S. aureus Newman, fluorescence polarization; MgrA-DNA binding; inhibition, %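 (about 10 µg/mL by stock and volumes)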; 0.13% of 84,000 active;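 active = above 50% in either of two replicates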;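 also: 0% = protein plus DNA without compound and 100% = DNA alone without protein; higher means less MgrA bound to DNA so lower polarization; one replicate is shown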
S aureus helic = inhibitors of S. aureus replicative helicase, primary screen, biochemical, fluorescence unwinding readout. 0.05% of 120,000 active. replicative DNA helicase (DnaC/DnaB), Staphylococcus aureus. inhibition, %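 (tested at about 80 µM)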. AID 485395, 2010. purified S. aureus helicase, fluorescence unwinding assay; about half of the hits fall short of the stated cut;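 active = both duplicates at 50% or more, or one of them with a favoured structure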;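 also: 0% = mean of negative control wells and 100% = mean of positive control wells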
Numbers without * were called inactive; / = no result given.

MgrA DNA FP | S aureus helic | canonical_smiles
2.9 | 5.0 | C=CCNC(=O)c1cc2c(=O)n3cccc(C)c3nc2n(CCN2CCOCC2)c1=N
-0.5 | / | COc1nccc(C(F)(F)F)c1C(N)=O
/ | 11.0 | CCSc1nc2ccccc2c(=O)n1CC1CCCCC1
13.2 | 19.0 | O=C(O)c1cnn2c(C(F)(F)F)cc(-c3ccco3)nc12
-0.7 | / | O=C(Nc1csnc1-c1c(Cl)cccc1Cl)NN1CCCCC1
0.9 | / | COc1ccc([N+](=O)[O-])c(SC(C)C(=O)O)n1 (stereo unspecified)
2.5 | 15.0 | N#CCOc1nc(N2CCCCC2)nc(N2CCCCC2)n1
0.6 | / | Cc1c(-c2ccnn2S(C)(=O)=O)sc2ccccc12
/ | 22.0 | Cc1cccn2c(=O)c3cc(C(=O)NCCN4CCOCC4)c(=N)n(CCCN4CCOCC4)c3nc12
0.9 | / | COCCCNC(=S)N/N=C/c1cccc(OC)c1O
/ | 20.0 | COC(=O)c1ccc(NC(=O)CC(C)CC(=O)O)cc1 (stereo unspecified)
/ | -55.0 | COc1ccccc1N1CCN(C2=Nc3cccc4cccc2c34)CC1
/ | -15.0 | CCOC(=O)c1c(Cc2ccc(Cl)cc2)c[nH]c1C
-1.5 | 4.0 | COCC(=O)N(CCc1ccccc1)Cc1cc2cccc(C)c2n2nnnc12
/ | 0.0 | Cc1c(Cl)cccc1NS(=O)(=O)c1cc2c3c(c1)C(C)C(=O)N3CCC2 (stereo unspecified)
-3.0 | 0.0 | O=C(O)COc1ccc(C(=O)c2ccccc2)cc1
/ | -18.0 | S=c1[nH]c2c(n1-c1ccccc1)CCCC2
/ | -18.0 | COc1ccc2cc3cc(C(=O)NCCN4CCN(Cc5ccccc5)CC4)oc3nc2c1
0.5 | -9.0 | Cc1ccc(C2CC(=O)C=C(Nc3ncn[nH]3)C2)cc1 (stereo unspecified)
/ | -7.0 | CCn1c(=O)cc(C(=O)OC)sc1=Nc1ccc(F)cc1
/ | 0.0 | COC(=O)c1cccc(NC(=O)Cc2csc(C)n2)c1
/ | 20.0 | Clc1ccc(-c2nnc3sc(-c4ccc(Br)o4)nn23)cc1
/ | -22.0 | CCCNCc1nc(-c2ccc(Cl)cc2)no1
/ | 9.0 | N#Cc1ccccc1OC(=O)CCN1C(=O)c2ccccc2C1=O
1.7 | / | O=C(c1ccccc1)c1ccc2ccccc2n1
-1.6 | / | FC(F)(F)c1ccn(-c2ncnc3scc(-c4ccccc4)c23)n1
5.9 | 2.0 | O=C(CSc1ccccc1)Nc1ccc2[nH]c(=O)[nH]c2c1
-8.0 | / | c1ccc(-c2nnc(N3CCc4ccccc43)nc2-c2ccccc2)cc1
/ | -9.0 | Cc1ccc2c(Cl)cc(Cl)c(OCC(=O)OCC(=O)Nc3ccc4c(c3)OCO4)c2n1
-2.8 | 1.0 | COc1ccc(CNC(=O)C2CCCN2)cc1OC (stereo unspecified)
2.2 | 4.0 | Cc1ccc(C(=O)c2ccc(C)c(C)c2)cc1C
0.0 | / | O=C1CCC(=O)N1CCSCc1cccc(C(F)(F)F)c1
-0.4 | / | O=S(=O)(NCc1ccc(-c2cccs2)s1)c1ccc(N2CCOCC2)nc1
/ | 0.0 | Cn1nnn(CN2CCc3ccccc3C2)c1=S
1.1 | 10.0 | OC(c1ccccc1)(c1ccccc1)C1CCN(C(=S)NCCc2ccccc2)CC1
-1.5 | 17.0 | O=C1Nc2ccccc2C1(O)c1c[nH]c2ccccc12 (stereo unspecified)
/ | 4.0 | Cc1nc(C)c(-c2ccn(C(=O)Nc3c(-c4c(Cl)cccc4Cl)noc3C)n2)s1
/ | 4.0 | Cc1cc(C(=O)COC(=O)c2cc(S(=O)(=O)N(C)C)ccc2N2CCCC2)c(C)n1C1CC1
/ | -7.0 | O=C(CNc1ccc(Cl)c(C(F)(F)F)c1)Nc1ccc(N2CCOCC2)cc1
/ | 14.0 | Cn1nc(C(=O)Nc2nccs2)ccc1=O
-4.3 | 1.0 | O=C1CSC2(CCCCC2)N1Nc1ccccc1
/ | -5.0 | CC(C)C(NC(=O)c1ccccc1)C(=O)N1CCN(C/C=C/c2ccccc2)CC1 (stereo unspecified)
0.7 | -11.0 | O=C(/C=C/c1ccccc1)OCC(=O)c1cc2ccccc2o1
/ | 22.0 | NC(=O)C1CCN(c2ncnc3onc(-c4ccc(F)cc4)c23)CC1
/ | -31.0 | CN(C(=O)Cn1c(=O)n(Cc2ccc(C(=O)NCc3ccco3)cc2)c(=O)c2sccc21)c1ccccc1
0.3 | 5.0 | C=C(C)COc1ccc(/C=C(/NC(=O)c2ccccc2)C(=O)O)cc1OC
-1.9 | -23.0 | O=C(O)/C=C1\C(=O)Nc2ccccc21
/ | 37.0 | Cc1cc(C)n(Cc2c(F)cccc2Cl)c(=O)n1
-0.7 | 2.0 | Cn1nnc2c(NCC(=O)C(C)(C)C)nc(Cc3ccc(Cl)cc3Cl)nc21
2.2 | -10.0 | COc1ccc(NS(=O)(=O)c2c(C)nc3sccn3c2=O)cc1Cl

3 structures already listed, arranged by SMILES length, low to high:
MgrA DNA FP | S aureus helic | canonical_smiles
0.7 | -11.0 | O=C(/C=C/c1ccccc1)OCC(=O)c1cc2ccccc2o1
0.3 | 5.0 | C=C(C)COc1ccc(/C=C(/NC(=O)c2ccccc2)C(=O)O)cc1OC
/ | -31.0 | CN(C(=O)Cn1c(=O)n(Cc2ccc(C(=O)NCc3ccco3)cc2)c(=O)c2sccc21)c1ccccc1

More results follow.
MgrA DNA FP | S aureus helic | canonical_smiles
/ | 10.0 | CSc1nc2c(=O)n(C)c(=O)n(C)c2n1C
-2.3 | / | O=S(=O)(NC1Cc2ccccc2C1)c1cc(C(F)(F)F)ccc1Cl
/ | 3.0 | NC(=O)CCn1cnc2ccccc21
0.5 | 10.0 | CC(SCc1ccccc1)C(=O)NN=C1CCN(C)CC1 (stereo unspecified)
0.3 | / | N#Cc1ccc(-c2ccc(C#N)cc2)cc1
/ | 7.0 | CCOc1c(Br)cc(C(=O)OCc2nc(N)nc(Nc3ccccc3)n2)cc1OC
4.8 | -4.0 | C=CCn1c(COc2ccccc2)nnc1SCC(=O)N1CCc2ccccc21
/ | -39.0 | C=CCSc1ncc(Cl)c(C(=O)Nc2ccc(OC)cc2OC)n1
/ | 2.0 | OC1CCN(c2ncnc3nc[nH]c23)CC1
-0.4 | / | S=C(NCCc1ccccc1)N/N=C/c1ccc(Cl)cc1
/ | -14.0 | CCOc1ccc(CC(=O)Nc2cccc(-c3ccc(N4CCOCC4)nn3)c2)cc1
/ | 17.0 | O=C(Nc1ccnn1C1CCCC1)c1ccc(-n2cccn2)cc1
-0.3 | 15.0 | Cc1ccc(OCc2n[nH]c(=S)n2C2CCCCC2)cc1
/ | 36.0 | CCOC(=O)C1CCCN(C(=O)CN2C(=O)/C(=C/c3ccc(OC)cc3)Oc3ccccc32)C1 (stereo unspecified)
/ | -2.0 | NC(=O)c1cc(NC(=O)COC(=O)C2CCCCC2)cc(C(N)=O)c1
/ | -3.0 | CCOC(=O)C1CCN(c2ncnc3nc[nH]c23)CC1
/ | -2.0 | [O-]/[N+](=C/c1ccc(F)cc1)c1ccccc1
/ | 4.0 | CCOC(=O)c1c(C)oc2c1c(C=NCc1cccnc1)c(O)c1ccccc12
/ | 24.0 | O=C1Nc2ccccc2C1(O)C/C(=N/O)c1ccc2c(c1)OCCO2 (stereo unspecified)
1.9 | 2.0 | CSc1ccc(C2Nc3ccccc3C(=O)N2c2ccc(C)cc2)cc1 (stereo unspecified)
/ | 5.0 | O=C(CCc1nc2ccccc2n1-c1ccccc1)NCCO
4.2 | 7.0 | CCCCC(=O)Nc1ncc(Br)s1
5.0 | 13.0 | CC(=O)OC1CC(C)(C)N(OC(=O)c2ccc(-n3cnnn3)cc2)C(C)(C)C1
/ | 6.0 | Cc1ccc(NC(=O)NCCC(C)C)cc1NC(=O)NCCC(C)C
1.1 | 1.0 | O=C(CSc1nn2cnnc2s1)N(C1CCCCC1)C1CCCCC1
2.5 | / | CCN=C1SC(CC(=O)Nc2ccccc2C#N)C(=O)N1CC (stereo unspecified)
1.4 | / | Cc1ccc(NC(=O)c2ccccc2NC(=O)c2ccccc2)cc1
/ | 2.0 | O=C(CCC1CC(=O)Nc2ccccc21)NCCC1=CCCCC1 (stereo unspecified)
/ | -1.0 | O=C(c1cc(F)cc2c1OCOC2)N1CCN(C(c2ccccc2)c2ccccc2)CC1
/ | 15.0 | CC(=O)Nc1c(-c2ccccc2)nc2ccccn12
/ | 17.0 | CCCCSc1nnc(-c2ccco2)n1N
0.8 | -8.0 | O=S(=O)(c1ccccc1)N1CCC(c2nc(-c3ccccc3)no2)CC1
0.8 | / | Nc1nnc(Sc2nc3cc(Cl)ccc3s2)s1
-1.1 | 8.0 | O=C(NC1CCCCC1)c1ccc2ccccc2n1
/ | -25.0 | CC(C)Cn1c(=O)c2ccccc2n2c(-c3cc(Cl)ccc3O)nnc12
0.3 | 12.0 | CCc1ccc(NC(=O)N2CCC3(CC2)OCCO3)cc1
4.8 | / | Cc1ccc(NC(=S)NN=C2CCCCCC2)c(C)c1
4.0 | 9.0 | CN1C2CCC1CC(NC1CC3CCC(C1)N3C)C2 (stereo unspecified)
-4.1 | / | O=S(=O)(NCCNc1ncnc2scc(-c3ccccc3)c12)c1ccc(Cl)cc1
-2.9 | 8.0 | CS(=O)(=O)N1CCN(C(=O)COc2ccc(F)c(Cl)c2)CC1
/ | 3.0 | CCC(C)n1c(=O)[nH]c2c(c1=O)CCC2 (stereo unspecified)
/ | -89.0 | N#Cc1cc2c(cc1C#N)N1CCCc3cccc(c31)O2
/ | -6.0 | Cc1onc(-c2ccccc2)c1NC(=O)N1CCN(C2c3ccccc3-c3ccccc32)CC1
4.5 | 1.0 | CN=c1sc2ccccc2n1CC(O)c1ccccc1 (stereo unspecified)
/ | -11.0 | CCN(C(=O)CSc1ccc(S(=O)(=O)N(C)C)cn1)C1=CCCC1
/ | 9.0 | CN(c1ccc(OCC(=O)N2CCOCC2)cc1)S(=O)(=O)c1cccs1
-2.0 | / | CCOC(=O)c1cnc2cc(-c3ccccc3)nn2c1C
1.0 | / | CCOC(=O)c1cc(-c2ccccc2)sc1NC(=O)CN1CCCC1
/ | 32.0 | O=C(NCCO)c1ccc(OC2OCCOC2Oc2ccc(C(=O)NCCO)cc2)cc1 (stereo unspecified)
-1.3 | / | O=C(COc1cc(Cl)ccc1Cl)Nc1ncc(S(=O)(=O)c2ccc([N+](=O)[O-])cc2)s1

Some of these compounds in order of their number in S aureus helic, high to low:
Compound	MgrA DNA FP	S aureus helic
CN1C2CCC1CC(NC1CC3CCC(C1)N3C)C2 (stereo unspecified)	4.0	9.0
O=C(CCc1nc2ccccc2n1-c1ccccc1)NCCO	/	5.0
COCC(=O)N(CCc1ccccc1)Cc1cc2cccc(C)c2n2nnnc12	-1.5	4.0

Next compounds follow.
MgrA DNA FP | S aureus helic | canonical_smiles
0.5 | / | O=C(c1nn2c(C(F)(F)F)cc(-c3cccs3)nc2c1Br)N1CCCCC1
/ | 3.0 | Cc1c(N2C(=O)CSC2c2ccccc2)c(=O)n(-c2ccccc2)n1C (stereo unspecified)
-1.7 | / | CCOC(=O)c1c(Cl)c2ccccc2n(C)c1=O
/ | 2.0 | Cc1cccc(-c2nc(CSCC(=O)NCCc3ccccc3)c(C)o2)c1
/ | 8.0 | Cc1cc(C)n(-c2ncnc3scc(-c4ccccc4Cl)c23)n1
1.4 | / | Cc1cc2nc3s/c(=C\c4ccc(-c5ccccc5[N+](=O)[O-])o4)c(=O)n3c2cc1C
-2.8 | 5.0 | Cc1ccnc(NC(=O)Cc2ccc(F)cc2)n1
/ | -8.0 | CCOC(=O)c1ccc(Nc2nc(Nc3ccc(C(=O)OCC)cc3)nc(N3CCOCC3)n2)cc1
/ | -26.0 | CC1CC(C)CN(C(=O)c2ccc(N3CCCC3=O)cc2)C1 (stereo unspecified)
11.2 | / | COc1cc(/C=C2\C(=O)NC(=S)N(c3ccc(F)cc3)C2=O)ccc1OCC(=O)O
26.9 | 9.0 | COc1ccc2o/c(=N\O)c(C(N)=O)cc2c1
/ | -6.0 | COC(=O)c1cc(NC(=O)c2ccc3c(=O)n4c(nc3c2)CCCCC4)cc(C(=O)OC)c1
/ | 8.0 | Cc1ccc(Cn2ccsc2=NC(=O)COC(=O)Cn2c(C)csc2=O)cc1
-0.7 | -17.0 | O=C(Oc1nc2ccccc2s1)c1ccccc1C(=O)c1ccccc1
2.8 | 9.0 | COc1ccccc1NC(=O)CSc1nncn2c1cc1oc(C)cc12
0.8 | 2.0 | CCOC(=O)c1sc2nc(SCC(=O)c3ccc(Br)cc3)n(N)c(=O)c2c1C
-2.4 | 1.0 | Cn1cc(Cl)c(C(=O)NCC(=O)c2ccccc2)n1
1.6 | -18.0 | CNS(=O)(=O)c1cc(C(=O)N2CCN(c3ccccc3)CC2)ccc1OC
-1.5 | 2.0 | Cc1cc(=O)[nH]c(Nc2nc3ccccc3[nH]2)n1
-1.1 | / | Fc1ccc(-c2ccnc3ncnn23)cc1
0.1 | 10.0 | N#Cc1cccc(CSc2nnc(-c3ccccc3O)n2Cc2ccccc2)c1
-2.5 | 13.0 | C[N+](C)(Cc1ccc(Cl)cc1)NCc1ccc(Cl)cc1
0.4 | / | CCN(CC)CCOC(=O)c1ccc(NC(=O)CN2C(=O)S/C(=C\c3ccccc3)C2=O)cc1
/ | 14.0 | NC(=O)NN=C1CCN(Cc2ccccc2)CC1
1.2 | -9.0 | CC1CCN(C(=O)C2CCN(Cc3cccc(O)c3)CC2)CC1
1.0 | / | CC(=O)Oc1cc(-c2ccccc2)nn1C
/ | -4.0 | Cc1ccc(/C=C2\C(=O)Nc3ccc(S(=O)(=O)Nc4ccc(F)cc4)cc32)o1
2.1 | -9.0 | CCC1Oc2ccc(C)cc2NC1=S (stereo unspecified)
/ | -9.0 | N#Cc1ccc(NC(=O)Cn2cnnn2)cc1
-1.8 | / | O=C(Nc1ccccc1)c1ccc(Br)cc1
/ | 12.0 | O=S(=O)(c1ccc(NCCCn2ccnc2)nc1)N1CCCC1

Screens deposited in PubChem by ICCB-Longwood Screening Facility, Harvard Medical School.

Some of the compounds tested; the hit share may differ from the screen's.
